Menin-MLL FL inh = qHTS Assay for Inhibitors Targeting the Menin-MLL Interaction in MLL Related Leukemias: Competition With Fluorescein Labeled MLL-derived Peptide | FP activity change, % at 61.4 µM | Fluorescence polarization, fluorescein-MLL peptide displacement from menin | 290,000 tested, under 10 active; inconclusive = falling polarisation curve, or a change in total fluorescence; inactive = total fluorescence flat and polarisation flat or rising; no compound was filed as active; the % refers to the polarisation; negative = inhibition;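 note: % of control where 0% means no effect; inhibitors lower the polarisation; unlabelled MLL peptide was the positive control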
TRPML1 inh = qHTS for Inhibitors of the Human Mucolipin Transient Receptor Potential 1 (TRPML1); Mucolipin-1 (Homo sapiens), Q9GZU1; TRPML1-inducible cells, Ca2+ dye fluorescence, FDSS; hits give low values; inhibition of EC80 agonist-evoked calcium signal; activity change, negative = inhibition, % (test concentration not listed); hit rate 0.02% among 390,000; in the data active means activity change below about -50%; inconclusive means about -30% to -50%; inactive means above about -30%;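 note: stimulus is agonist 54-4 at its EC80 concentration; % is set by controls: 0 for no effect and ±100 for the full control effect; compound concentration not given in the record; the text of the record puts the active cut at -80%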
Target sequence (Q9GZU1 whole entry, looked up): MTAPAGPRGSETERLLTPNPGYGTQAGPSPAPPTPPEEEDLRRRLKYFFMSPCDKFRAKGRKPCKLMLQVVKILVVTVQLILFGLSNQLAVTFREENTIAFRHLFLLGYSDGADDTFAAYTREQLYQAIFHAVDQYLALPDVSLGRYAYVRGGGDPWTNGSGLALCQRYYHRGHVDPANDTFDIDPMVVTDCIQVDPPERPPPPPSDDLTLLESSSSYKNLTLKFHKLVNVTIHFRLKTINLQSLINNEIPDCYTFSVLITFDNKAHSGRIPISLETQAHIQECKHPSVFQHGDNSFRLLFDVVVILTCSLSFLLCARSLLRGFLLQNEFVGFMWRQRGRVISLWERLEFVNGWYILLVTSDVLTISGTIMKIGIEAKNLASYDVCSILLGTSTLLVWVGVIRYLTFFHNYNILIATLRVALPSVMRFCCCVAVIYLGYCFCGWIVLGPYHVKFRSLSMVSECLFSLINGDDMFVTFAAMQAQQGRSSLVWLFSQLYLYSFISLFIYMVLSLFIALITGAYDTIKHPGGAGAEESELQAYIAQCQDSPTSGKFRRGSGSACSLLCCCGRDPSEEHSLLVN
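TRPML1-DL cells, Tet-induced overnight (~16 h, 37 °C) at 1,500 cells/well, were loaded with Ca8 no-wash dye plus quencher for 45-90 min at room temperature. Compounds were pinned during FDSS kinetic reading; agonist 54-4 at EC80 (4 uM final) then added.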
Sfp PPTase inh = qHTS Assay for Inhibitors of Bacillus subtilis Sfp phosphopantetheinyl transferase (PPTase); 4'-phosphopantetheinyl transferase ffp (Bacillus subtilis), Q9F4F7; Biochemical Sfp PPTase activity, qHTS; Potency, µM, inactives show max response, negative = inhibition, most hits filed as inhibitors; hit rate 3.5% among 310,000; AID 1490, 2009; active = well fitted inhibition curve with a large enough effect; inconclusive = small, poorly fitted or top-dose-only effect, or another doubt; inactive = no such curve, though single readings can be large or run the other way;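 note: the enzyme is Sfp with the accession as filed and its product quenches rhodamine fluorescence; potency is the fitted concentration of half-maximal effect; 0% = enzyme reaction without inhibitor and -100% = no enzyme wells; top concentration of the series not given in the record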
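Compounds were incubated with enzyme (final 15 nM) for 15 min at room temperature before substrate addition started the reaction. Fluorescence at 525 nm excitation, 598 nm emission was recorded immediately and after 30 minutes.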
ClpP mod = qHTS Assay for Activators of ClpP | ATP-dependent Clp protease proteolytic subunit (Bacillus subtilis (strain 168)), P80244 | purified B. subtilis ClpP, FRET peptide cleavage, 20 min | Potency, µM (top dose mostly 57.5 µM), for inactives: at the highest dose activity change, negative = active | hit rate 1.9% among 340,000 | AID 651965, 2013; active = well fitted falling curve with a large enough effect; inconclusive = small, poorly fitted or top-dose-only effect; inactive = no such curve, though single readings can be large or run the other way; note: potency is the fitted concentration of half-maximal effect; the source files actives as falling curves though it sought activators and does not explain the sign; nearly all actives have a fitted effect of over 65% in size; many hits overshoot -100%
Target sequence (P80244 whole entry, looked up): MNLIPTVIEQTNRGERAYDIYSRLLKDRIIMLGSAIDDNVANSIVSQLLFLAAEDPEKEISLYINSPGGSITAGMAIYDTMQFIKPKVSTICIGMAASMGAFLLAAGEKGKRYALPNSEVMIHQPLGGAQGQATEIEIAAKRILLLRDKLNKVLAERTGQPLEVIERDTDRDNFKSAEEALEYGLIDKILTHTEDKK
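FRET quenching reversal measured ClpP activation: 10 microg/mL B. subtilis ClpP at pH 8 with the FRET-FV decapeptide, read at 430 nm after 320 nm excitation. The 20-min minus 0-min signal was scaled between DMSO/no-enzyme wells and ADEP (5.8 microM final).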
PINK1 expr mod = A Quantitative High throughput Screen to Identify Chemical Modulators of PINK1 Expression; hit rate 0.2% among 410,000; PINK1 immunofluorescence, high-content cytometry, 24 h; AID 624263, 2012; Potency, µM (series often up to 76.6 µM), inactives show top-dose activation (PINK1 increase), hits mostly activators; active = well fitted activation curve with a large enough effect; inconclusive = small, poorly fitted or top-dose-only effect; inactive = flat fitted curve, though single readings scatter; cell line not stated here;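 note: potency is the fitted concentration of half-maximal effect; % of control where 0% means no effect; nearly all actives have a fitted effect of over 65% in size; a mitochondrial uncoupler was the plate control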
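Compound titrations (5 concentrations, 24 h) on a stable cell line; DMSO and CCCP controls. Endpoint: fixed-cell PINK1 immunofluorescence with mitochondrial, cell and nuclear markers, scanned by microplate cytometer.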
TRPV1 PAM = HTS Assay for Compounds that Act as Potentiators of the Vanilloid Receptor 1. potentiation, % at 8.33 µM. TRPV1-expressing cells, Fluo-8 calcium influx, capsaicin EC20 potentiation; host cell line not named in the record; control for the full effect not named in the record. AID 540277, 2011. hit rate 0.02% among 320,000; active means potentiation above 80%; inconclusive means 30% to 80%; inactive means below 30%; note: 0% is about no effect
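Fluo-8 calcium influx in TRPV1-expressing cells, kinetic read (ex 480/em 520 nm). Compound added and read 3 min for agonist activity, followed by capsaicin at EC20 final and 2 min further read for enhancement.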
TRPML1 ag = qHTS for Agonists of the Human Mucolipin Transient Receptor Potential 1 (TRPML1) | Mucolipin-1 (Homo sapiens), Q9GZU1 | TRPML1-expressing cells, Ca2+ dye fluorescence, FDSS; host cell line not named in the record; reference of the full effect not given here | activation, % (test concentration not listed) | hit rate 0.12% among 410,000; in the data active = activation above about 50%; inconclusive = about 30% to 50%; inactive = below about 30%; note: 0% is about no effect; the text of the record puts the active cut at 80%
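Tet-induced TRPML1-DL cells, 1,500 per well, cultured overnight, were loaded with a no-wash Ca2+ dye for 45–90 min. Calcium fluorescence was recorded on the FDSS for 110 s after compound addition, before the EC80 agonist (4 uM 54-4) was added.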
Starred values were filed as active, the others as inactive; i = inactive; ? = inconclusive; / = not tested or not shown; [ ] = another dose, or the depositor's remark. Compounds as they come. Share with any hit: about 4.4%.

SMILES	Menin-MLL FL inh	TRPML1 inh	Sfp PPTase inh	ClpP mod	PINK1 expr mod	TRPV1 PAM	TRPML1 ag
CCOc1cc(/C=C2\CCCC(C(=O)C(F)(F)F)=C2O)ccc1O	19	-1	-17%	1.2%	0.1%	-1	2.9
Cc1ccc(C)c(N2CCN(c3cc(C)nc4c(-c5ccc(Cl)cc5)c(C)nn34)CC2)c1	/	-7	/	-26%	9.2%	/	-0.2
O=C(/C=C/c1cccc(F)c1)Nc1cc(S(=O)(=O)N2CCOCC2)ccc1Cl	/	-11	/	-3.6%	1.6%	/	2.1
CC1CCCC(NC(=O)CCNC(=O)c2ccc(Br)cc2)C1C (stereo not drawn)	/	11	/	-1.5%	0.4%	-9	2.2
CC1CCc2c(sc3nn[nH]c(=O)c23)C1 (stereo not drawn)	7.3	-8	?	-1.7%	-3.0%[38.3 µM]	?	1.0
COc1cccc(CCNC(=O)C2CCCN(c3ncnc4c3nc3n4CCCCC3)C2)c1OC (stereo not drawn)	1.0	0	3%	/	0.2%	-2	0.4
CCc1ccccc1NC(=O)Nc1cnccn1	-2.2	-2	20%	-5.4%	-1.6%	0	0.5
Cc1nnc(CN(C)Cc2cn[nH]c2-c2ccc(-c3ccccc3)cc2)o1	0.2	-16	-1%	/	2.9%	7	0.3
O=C(Nc1cccc(-c2nnc(-c3ccccc3)o2)c1)C1CC1	3.1	-6	-16%	/	0.5%	4	0.0
CN1CCN(CCN2CCn3c2nc2ccccc23)CC1	2.1	4	9%	-5.7%	5.4%	-5	1.4
N#Cc1c(-n2ncnc2-c2ccc(F)cc2)sc2c1CCCCC2	/	56	/	-0.5%	-0.4%	/	1.9
COc1ccc(Cl)cc1NC(=O)Cn1c(=O)n(Cc2ccc(F)cc2)c(=O)c2cccnc21	/	-12	/	3.9%	0.4%	/	-0.6
Clc1ccc(CN2CCc3nc(N4CCN(c5ccccn5)CC4)ncc3C2)cc1	/	-9	/	108%	3.6%	/	-0.4
CCc1nnc(NC(=O)c2cc(-c3cccnc3)nc3ccccc23)s1	2.0	-5	-3%	2.2%	2.2%	5	1.8
CN(CCc1ccccn1)S(=O)(=O)c1ccccc1F	1.2	1	12%	2.1%	-3.6%[38.3 µM]	3	-0.9
C=CCOc1c(Br)cc(/C=N/O)cc1OCC	2.5	4	18%	-3.4%	2.7%	19	5.0
COc1ccccc1-c1cc(C2CC2)nc(N)c1C#N	1.8	-15	11%	28µM*	1.8%[38.3 µM]	-1	-0.4
COc1ccc2cc(C3CC(c4cccs4)=NN3S(C)(=O)=O)c(Cl)nc2c1 (stereo not drawn)	19	0	14%	-6.6%	-1.8%	3	3.8
COC(=O)c1nc2n(n1)C(c1cccc(Cl)c1)C1=C(CC(C)(C)CC1=O)N2 (stereo not drawn)	-1.8	-9	4%	-6.8%	2.6%	-4	-0.5
Cc1c(OCC(=O)NC2CCN(Cc3ccccc3)CC2)ccc2c3c(c(=O)oc12)CCC3	/	-6	20%	-19%	0.5%	1	0.7

Single records (already shown). Order of screens: Menin-MLL FL inh, TRPML1 inh, Sfp PPTase inh, ClpP mod, PINK1 expr mod, TRPV1 PAM, TRPML1 ag
Record of COC(=O)c1nc2n(n1)C(c1cccc(Cl)c1)C1=C(CC(C)(C)CC1=O)N2 (stereo not drawn) = -1.8, -9, 4%, -6.8%, 2.6%, -4, -0.5
Record of COc1ccc2cc(C3CC(c4cccs4)=NN3S(C)(=O)=O)c(Cl)nc2c1 (stereo not drawn) = 19, 0, 14%, -6.6%, -1.8%, 3, 3.8

Following part:
SMILES	Menin-MLL FL inh	TRPML1 inh	Sfp PPTase inh	ClpP mod	PINK1 expr mod	TRPV1 PAM	TRPML1 ag
CCCC(=O)Nc1nnc(COC)s1	-1.4	-20	3%	-3.6%	-0.1%	-3	0.5
COCCn1nnnc1CN(Cc1cccnc1)Cc1cc2cc(OC)ccc2[nH]c1=O	0.8	-6	-8%	?	-1.4%	9	0.3
COc1ccc(OC)c(C(=O)Cn2nnc(-c3ccc(N4CCOCC4)cc3)n2)c1	6.5	-1	-6%	74%	7.8%	3	0.1
CNC(=S)N(Cc1cccs1)Cc1cc2ccc(OC)cc2[nH]c1=O	2.0	9	-8%	i	2.7%	17	0.3
N#CC1(NC(=O)COC(=O)c2nc(Cl)ccc2Cl)CCCCC1	/	42	/	-0.9%	1.3%	-2	-0.7
O=C(NCC1CCCO1)C(c1ccc(N2CCOCC2)cc1)N(C(=O)Cn1nnc2ccccc21)c1ccccc1F (stereo not drawn)	-5.2	-10	8%	-1.9%	-1.7%	5	3.3
N=c1c2c(-c3ccccc3)c(-c3ccccc3)n(Cc3ccco3)c2ncn1CCCO	3.4	23	?	/	-2.5%	-15	-0.2
Cc1ccc(NC(=O)c2ccc3[nH]c(C)cc(=O)c3c2)cc1	/	-10	/	-10%	-1.0%	/	-0.2
Cc1cccc(NC(=O)C2CCN(S(=O)(=O)c3ccc4c(c3)NC(=O)CO4)CC2)c1	0.1	-17	13%	2.3%	1.4%	-7	-0.8
COc1ccccc1Cn1c(C)c(C(=O)NCc2ccc(C#N)cc2)sc1=O	/	/	/	1.6%	0.0%	/	21
CCNC(=S)NNC(=O)c1cc(CC(C)C)nc2ccccc12	0.1	-13	3%	23%	?	-16	0.6
CCCCOc1ccc(C(=O)NCCC(=O)NCCCC(=O)OCC)cc1	26	-11	1%	0.5%	0.1%	0	-0.5
CCN(CC)CCCn1c2c(c(SCC(=O)Nc3ccccc3Cl)nc1=O)CCC2	/	0	/	-17%	-0.7%	-5	-0.3
CC(NC(C(=O)c1ccccc1)c1ccccc1)c1ccccc1 (stereo not drawn)	/	13	/	/	14%	/	3.4
CCn1cc(C(=O)N(C)c2cc(C)ccc2OC)c2cc(OC)c(OC)cc2c1=O	-9.6	/	-16%	-3.5%	-0.5%	-9	/
O=C(NCC(=O)N1CCN(S(=O)(=O)c2cccc(F)c2)CC1)c1ccc(Br)o1	/	4	/	-1.3%	-0.2%	-2	-0.1
COC(=O)CCC(=O)N1CCc2cc(S(=O)(=O)N3CCc4ccccc43)ccc21	0.9	15	-3%	-2.9%	-0.5%	5	0.8
CCOc1ccc(CC(=O)C2C(=O)CC(C)(C)CC2=O)cc1OCC	-1.4	7	?	-1.0%	0.7%	27	0.0
CCOC(=O)N1CCN(C(=O)c2cc3c(s2)-c2ccccc2OC3)CC1	-0.5	-14	6%	3.9%	2.5%	-22	0.2
COc1cc(OC)cc(C(=O)Nc2cccc(NC(C)=O)c2)c1	0.3	-7	-3%	-11%	-2.7%[38.3 µM]	6	0.5
COc1ccc(OC)c(NC(=O)c2nc(-c3ccccc3)oc2C)c1	-1.3	9	-19%	-6.8%	10%	-17	-0.3
c1ccc(Nc2nc(-c3ccncc3)cs2)nc1	-2.1	47	-12%	3.1%	-2.6%	-8	0.4
CCOc1ccccc1NC(=O)c1nn(-c2ccc(C)cc2)c(=O)n(C)c1=O	/	5	/	-5.7%	1.3%	/	-0.8
CS(=O)(=O)N(CC(=O)Nc1ccccc1C(=O)N1CCCC1)c1ccc2c(c1)OCO2	-4.3	27	19%	/	-0.1%	6	0.1
O=C(NCCCNC(=O)c1cccnc1)c1ccc(Cl)cc1	-2.4	8	0%	/	6.3%	21	0.4
CCOc1cccc(CN2CCC(n3nccc3NC(=O)c3ccc4c(c3)OCO4)CC2)c1	/	-5	12%	0.6%	0.7%	-9	-0.2
CCCCn1c(N)c(N(CCC(C)C)C(=O)c2ccc3ccccc3c2)c(=O)[nH]c1=O	/	11	/	-0.1%	8.2%	-3	-0.6
COc1cc(-c2c(C#N)c(N)nc3[nH]c(=S)[nH]c(=O)c23)ccc1O	-1.3	-3	-17%	1.6%	0.0%	0	2.1
Cc1ccc(S(=O)(=O)C2(C(=O)NCc3ccc4c(c3)OCO4)CC2)cc1	1.4	12	25%	-3.1%	-0.7%	1	-0.5
c1ccc(-c2cnc(-c3ccccc3)nn2)cc1	/	33	/	-7.4%	1.5%	/	0.9
CC(O)c1c(-c2ccccc2)nn(C)c1Cl (stereo not drawn)	0.6	-21	13%	/	1.0%	8	0.6
COc1ccc(NC(=O)C2Cc3c(-c4cccc(NC(C)=O)c4)ccnc3O2)cc1 (stereo not drawn)	/	/	/	-5.7%	11%	/	-0.6
Nc1nc(NCc2ccccc2Cl)n(-c2ccccc2)n1	0.1	-1	15%	-3.4%	-0.9%	0	-0.5
CCOC(=O)N/N=C/c1ccc(C)o1	4.5	4	26%	-0.8%	1.0%[38.3 µM]	5	-0.2
CCCCn1c(N)c(N(CCC(C)C)C(=O)c2ccc3c(c2)OCO3)c(=O)[nH]c1=O	/	5	/	-8.7%	1.1%	0	-0.7
O=C(O)/C(=C\c1cccc(O)c1)c1ccc(S(=O)(=O)N2CCCC2)s1	/	-3	/	-0.2%	-0.9%	-10	-0.4
O=C(NCc1ccco1)c1ccc2c(c1)N(Cc1ccccc1)C(=O)CS2	2.8	-7	2%	-1.8%	0.8%	2	0.8
COc1ccc2cc3cc(C(=O)N(C)C4CCCCC4)oc3nc2c1	/	1	1%	4.0%	1.1%	-15	1.0
O=C(Nc1ccccc1C(=O)N1CCCCC1)c1cccs1	/	0	4%	0.1%	5.7%	11	-0.8
O=C(CNc1ccc(F)cc1)c1ccccc1	0.5	8	-1%	/	0.8%	4	1.5
Cc1ccc(SCCN2CCN(C)CC2)cc1	0.6	44	-18%	/	1.8%	-11	0.6
CCCCNC(=O)CCn1nc(-c2ccccc2)c2ccccc2c1=O	3.9	9	4%	1.8%	1.3%	-20	-0.5
CC12C=CC(=O)C=C1CCC1C2C(=O)C[C@@]2(C)C1CCC2(O)C(=O)CO (stereo partly drawn)	/	-5	/	2.0%	-0.6%	/	0.0
CC(C)C(=O)Nc1cccc(C(=O)NCc2ccc(S(N)(=O)=O)cc2)c1	1.2	15	10%	0.6%	8.7%	1	0.8
O=C1C(C=NCCCN2CCCC2=O)=C(O)c2ccccc21	?	9	12%	-1.4%	1.0%	8	-1.0
